# FLuc act counter: firefly luciferase counter-screen for stimulation assays. AID 1027. ATPlite luciferase biochemical, luminescence, 10 min; 0 = ATP-free wells, 1 = DMSO control. 200,000 tested, under 10 active. activation factor at 10 µM. P08659;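 active = luciferase activation factor, scaled between plate controls, of at least 2 with compound at 10 µM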
# Target sequence (P08659 whole entry, looked up): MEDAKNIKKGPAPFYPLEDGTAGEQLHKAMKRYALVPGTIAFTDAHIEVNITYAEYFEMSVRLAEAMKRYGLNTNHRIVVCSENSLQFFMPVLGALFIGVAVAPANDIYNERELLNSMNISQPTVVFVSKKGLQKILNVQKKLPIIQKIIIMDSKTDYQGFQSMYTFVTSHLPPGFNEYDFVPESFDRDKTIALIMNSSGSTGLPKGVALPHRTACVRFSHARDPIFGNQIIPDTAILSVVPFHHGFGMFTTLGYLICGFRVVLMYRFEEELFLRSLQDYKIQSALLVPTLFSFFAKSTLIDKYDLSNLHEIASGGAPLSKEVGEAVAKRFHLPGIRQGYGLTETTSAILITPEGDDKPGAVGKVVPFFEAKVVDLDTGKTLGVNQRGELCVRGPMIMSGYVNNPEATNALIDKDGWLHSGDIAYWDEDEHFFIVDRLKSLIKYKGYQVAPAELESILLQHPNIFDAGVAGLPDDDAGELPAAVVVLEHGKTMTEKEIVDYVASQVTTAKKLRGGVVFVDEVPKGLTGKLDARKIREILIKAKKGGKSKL
#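 Material: Luciferase/luciferin reagent mix; Doses: test compounds dosed from 2 mM stocks in 100% DMSO; Schedule: 10 min incubation after luciferase reagent addition, room temperature; Measured by: luminescence from luciferase reaction; Read-out: luminescence gain marking luciferase activators.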
# Efa HMGR inh: inhibitors of class II HMG-CoA reductase from Enterococcus faecalis. purified E. faecalis HMGR, NADPH absorbance 340 nm kinetic. inhibition, % at 10 µM. 190,000 tested, 0.41% active. AID 1066;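 active = inhibition above a set limit, the median over all tested compounds plus 3 SD, cut at about 9.5% in these data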;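 note: enzyme runs in reverse so mevalonate oxidation gives rising NADPH absorbance; 0% = complete reaction with DMSO and 100% = background rate lacking mevalonate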
# TNAP inh no acc: blocks human TNAP activity with no phosphate acceptor present; 200,000 tested, 0.26% active; P05186; inhibition, % at 20 µM; purified TNAP, CDP-star luminescence, 30 min; AID 1012;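 active = tissue-nonspecific alkaline phosphatase inhibition above about 50% at 20 µM in the single-dose screen, limit read from the data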;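 note: 0% = DMSO negative control and 100% = EDTA positive control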
# Target sequence (P05186 whole entry, looked up): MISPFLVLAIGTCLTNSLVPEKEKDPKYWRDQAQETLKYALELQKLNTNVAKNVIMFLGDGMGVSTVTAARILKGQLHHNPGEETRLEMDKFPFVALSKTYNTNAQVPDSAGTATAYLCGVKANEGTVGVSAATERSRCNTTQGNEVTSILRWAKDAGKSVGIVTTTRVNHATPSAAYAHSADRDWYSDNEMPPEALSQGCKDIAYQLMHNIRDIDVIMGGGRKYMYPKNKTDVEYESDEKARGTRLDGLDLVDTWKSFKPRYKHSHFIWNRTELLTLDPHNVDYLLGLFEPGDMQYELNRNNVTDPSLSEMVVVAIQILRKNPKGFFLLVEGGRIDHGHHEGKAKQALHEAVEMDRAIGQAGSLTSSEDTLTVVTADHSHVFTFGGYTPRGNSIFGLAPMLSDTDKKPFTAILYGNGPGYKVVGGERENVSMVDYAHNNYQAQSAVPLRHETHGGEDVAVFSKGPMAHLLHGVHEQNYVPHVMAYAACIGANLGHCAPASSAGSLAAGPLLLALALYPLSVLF
# G6PDH counter: inhibits Leuconostoc G6PDH, flagging false hits in G6PDH-based assays | inhibition, % at 5 µM | 200,000 tested, 0.12% active | Purified L. mesenteroides G6PDH, diaphorase/resazurin coupled fluorescence, 45 min; in the data active = inhibition above about 50%
# TNAP act hi DEA: increases human TNAP activity under high phosphate acceptor concentration. P05186. purified TNAP, CDP-star luminescence, 1 M DEA, 30 min; active compounds read high; 0 = EDTA background, 1 = DMSO-only activity. activation factor at 20 µM. 200,000 tested, under 10 active. AID 1136;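 active = activation factor at least 2 at 20 µM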
#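 Measured by: Luminescent substrate turnover signal | Test system: Human TNAP | Input: TNAP 1/800 final | Dosing: 20 µM single point | Schedule: 30 min, room temperature | Controls: EDTA wells as negative control, DMSO wells as positive control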
# Diaph inh CS: inhibits diaphorase or chemically oxidizes, flagging diaphorase assay artifacts. diaphorase resazurin-to-resorufin fluorescence, NADH, 16 min; bacterial (C. kluyveri) enzyme, not human. inhibition, % at 20 µM. 190,000 tested, 0.69% active;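 active = primary screen inhibition at 20 µM above a set limit, cut at about 50% in these data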;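 note: plate controls were DMSO with full reaction for no effect and wells lacking NADH for full effect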
#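 Test system: bacterial diaphorase enzyme (C. kluyveri); Quantity: 0.14 U/mL diaphorase, enzyme working solution; Times: reaction incubation of 16 min at room temperature; Measured by: fluorescence of resorufin formed from resazurin, Ex 544/Em 590 nm; Benchmarks: positive control minus NADH, DMSO neutral control.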
# TNAP inh hiacc: inhibitors of human TNAP at high phosphate acceptor concentration. P05186. purified TNAP, CDP-star luminescence, 1 M DEA. 200,000 tested, 0.03% active. inhibition, % at 20 µM;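 active = over 50% inhibition of tissue-nonspecific alkaline phosphatase at 20 µM in the single-dose screen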;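 note: plate controls were DMSO wells for no effect and EDTA-quenched wells as full inhibition for full effect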
# Numbers without * were called inactive; / = no result given. Only part of the results is shown; the hit share may differ from the screen's.
# Start of the data: the first 17 compounds as a preview:
item | mol | FLuc act counter | Efa HMGR inh | TNAP inh no acc | G6PDH counter
1 | CCOC(=O)/C=C1\NC(C)(C)Cc2cc(OC)c(O)cc21 | 1 | -2 | 3 | 5
2 | O=C(Nc1ccc([N+](=O)[O-])cc1)/C(=C/c1cccc([N+](=O)[O-])c1)NC(=O)C1CCCCC1 | 1.1 | 4 | -10 | 0
3 | CCC(C)(C)n1nnnc1C(C(C)C)N(CCCO)Cc1cc2cc(C)ccc2[nH]c1=O (stereo not drawn) | 1.1 | 2 | 1 | 5
4 | COc1ccc(C(=O)N/C(=C\c2cccs2)c2nc3ccccc3[nH]2)cc1OC | 0.9 | -3 | 8 | 6
5 | Nc1nc2ccccc2nc1N1CCCC1 | 1 | 1 | -5 | 8
6 | COc1ccc(NC(=O)[C@H](COCc2ccccc2)NC(=O)OC(C)(C)C)cc1 | 1 | -4 | -12 | 7
7 | O=C(COc1ccc(Cl)cc1)Nc1ccccc1CO | 1 | 1 | -5 | 6
8 | O=C(CCn1nc(-c2ccccc2)ccc1=O)NCCCN1CCCCCC1 | 1 | -2 | -8 | 4
9 | c1ccc(-n2cnc3cc(NCc4cccs4)ccc32)cc1 | 0.8 | -5 | 7 | 15
10 | Cc1cccc(Cc2c(C)nc3nc(SCC(=O)NCc4ccco4)nn3c2C)c1 | 1.1 | 1 | -3 | 4
11 | CCCOc1ccc(OC(=O)c2ccc(Br)o2)cc1 | 0.8 | 3 | -1 | 10
12 | Cc1ccc2cc(C#N)c(SCC(=O)N3CCCc4ccccc43)nc2c1C | 1.1 | -1 | 1 | 5

item | TNAP act hi DEA | Diaph inh CS | TNAP inh hiacc
1 | 1.1 | -1 | -8
2 | 1 | 14 | -3
3 | 1.1 | 7 | -6
4 | 1 | -6 | -1
5 | 1 | 0 | -1
6 | 1.1 | -1 | -8
7 | 1 | 26 | -4
8 | 1 | -15 | -4
9 | 1 | 23 | -3
10 | 1 | 23 | 1
11 | 1.1 | 12 | -5
12 | 1 | 8 | -4

item | mol | FLuc act counter | Efa HMGR inh | TNAP inh no acc | G6PDH counter
13 | CCC1CCCCN1CCCNC(=O)Cn1nc(-c2ccc(C)cc2)ccc1=O (stereo not drawn) | 1 | -2 | 3 | 2
14 | COC(=O)c1sc(=S)n(-c2ccccc2OC)c1N | 1 | 3 | -12 | 22
15 | NC(=O)C1(NC(=O)[C@@H]2CC3(CC(c4cccc(NC(=O)[C@@H]5CCC(=O)N5)c4)=NO3)CN2C(=O)Cc2ccc(Cl)cc2)CC1 (stereo partly drawn) | 1 | -8 | -6 | 5
16 | Cc1nc(NC(=O)c2ccco2)sc1-c1csc(Nc2ccc(Cl)cc2Cl)n1 | 1.1 | -4 | -7 | 5
17 | Cc1ccc(Nc2nnns2)cc1 | 1 | 1 | -6 | 10

item | TNAP act hi DEA | Diaph inh CS | TNAP inh hiacc
13 | 1 | 12 | -1
14 | 1 | 0 | -2
15 | 1 | 6 | 1
16 | 1 | 9 | -3
17 | 1 | 5 | 0

# The whole of this part (from the top)
item | mol | FLuc act counter | Efa HMGR inh | TNAP inh no acc | G6PDH counter
1 | CCOC(=O)/C=C1\NC(C)(C)Cc2cc(OC)c(O)cc21 | 1 | -2 | 3 | 5
2 | O=C(Nc1ccc([N+](=O)[O-])cc1)/C(=C/c1cccc([N+](=O)[O-])c1)NC(=O)C1CCCCC1 | 1.1 | 4 | -10 | 0
3 | CCC(C)(C)n1nnnc1C(C(C)C)N(CCCO)Cc1cc2cc(C)ccc2[nH]c1=O (stereo not drawn) | 1.1 | 2 | 1 | 5
4 | COc1ccc(C(=O)N/C(=C\c2cccs2)c2nc3ccccc3[nH]2)cc1OC | 0.9 | -3 | 8 | 6
5 | Nc1nc2ccccc2nc1N1CCCC1 | 1 | 1 | -5 | 8
6 | COc1ccc(NC(=O)[C@H](COCc2ccccc2)NC(=O)OC(C)(C)C)cc1 | 1 | -4 | -12 | 7
7 | O=C(COc1ccc(Cl)cc1)Nc1ccccc1CO | 1 | 1 | -5 | 6
8 | O=C(CCn1nc(-c2ccccc2)ccc1=O)NCCCN1CCCCCC1 | 1 | -2 | -8 | 4
9 | c1ccc(-n2cnc3cc(NCc4cccs4)ccc32)cc1 | 0.8 | -5 | 7 | 15
10 | Cc1cccc(Cc2c(C)nc3nc(SCC(=O)NCc4ccco4)nn3c2C)c1 | 1.1 | 1 | -3 | 4

item | TNAP act hi DEA | Diaph inh CS | TNAP inh hiacc
1 | 1.1 | -1 | -8
2 | 1 | 14 | -3
3 | 1.1 | 7 | -6
4 | 1 | -6 | -1
5 | 1 | 0 | -1
6 | 1.1 | -1 | -8
7 | 1 | 26 | -4
8 | 1 | -15 | -4
9 | 1 | 23 | -3
10 | 1 | 23 | 1

# The results go on:
item | mol | FLuc act counter | Efa HMGR inh | TNAP inh no acc | G6PDH counter
11 | CCCOc1ccc(OC(=O)c2ccc(Br)o2)cc1 | 0.8 | 3 | -1 | 10
12 | Cc1ccc2cc(C#N)c(SCC(=O)N3CCCc4ccccc43)nc2c1C | 1.1 | -1 | 1 | 5
13 | CCC1CCCCN1CCCNC(=O)Cn1nc(-c2ccc(C)cc2)ccc1=O (stereo not drawn) | 1 | -2 | 3 | 2
14 | COC(=O)c1sc(=S)n(-c2ccccc2OC)c1N | 1 | 3 | -12 | 22
15 | NC(=O)C1(NC(=O)[C@@H]2CC3(CC(c4cccc(NC(=O)[C@@H]5CCC(=O)N5)c4)=NO3)CN2C(=O)Cc2ccc(Cl)cc2)CC1 (stereo partly drawn) | 1 | -8 | -6 | 5
16 | Cc1nc(NC(=O)c2ccco2)sc1-c1csc(Nc2ccc(Cl)cc2Cl)n1 | 1.1 | -4 | -7 | 5
17 | Cc1ccc(Nc2nnns2)cc1 | 1 | 1 | -6 | 10
18 | Cc1ccc(NC(=O)N/C=C/c2ccc(Cl)cc2)cc1 | 1 | -1 | -10 | 10
19 | COc1ccc(C2N=C(N)N=C(N)N2c2ccccc2OC)cc1OC (stereo not drawn) | 1 | 2 | -18 | -5
20 | O=c1c2cc(Br)ccc2nc(-c2cccc(C(F)(F)F)c2)n1O | 1 | 0 | 1 | 1

item | TNAP act hi DEA | Diaph inh CS | TNAP inh hiacc
11 | 1.1 | 12 | -5
12 | 1 | 8 | -4
13 | 1 | 12 | -1
14 | 1 | 0 | -2
15 | 1 | 6 | 1
16 | 1 | 9 | -3
17 | 1 | 5 | 0
18 | 1.1 | -4 | -5
19 | 1.1 | 2 | -6
20 | 1 | 19 | 1

# Next part.
item | mol | FLuc act counter | Efa HMGR inh | TNAP inh no acc | G6PDH counter
21 | N#Cc1c(Cl)nc(SCc2ccccc2)nc1-c1ccccc1 | 1 | -11 | -12 | 10
22 | CCCCn1nc2cc(C(=O)NCc3ccccc3)ccc2c1OCC | 1.1 | 0 | -14 | 4
23 | CC(C)c1ccc2c(c1)C(c1ccc(N3CCOCC3)cc1)=NNC(c1cccs1)=N2 | 1 | -3 | -7 | 5
24 | CCOC(=O)c1c(C)[nH]c(C)c1C(=O)COC(=O)c1cccc(S(=O)(=O)N(CC)CC)c1 | 1 | 4 | 5 | 5
25 | O=C(CSc1ccccc1C(=O)O)NCc1ccco1 | 1 | -1 | -6 | 17
26 | N#Cc1nc(-c2cccs2)oc1NCc1ccccc1 | 1 | 3 | -5 | 17
27 | Cc1ccccc1OCC1Cn2c(nc3c2c(=O)[nH]c(=O)n3C)O1 (stereo not drawn) | 1.1 | -4 | -7 | 7
28 | COc1ccccc1-c1c(C)oc2c(CN3CCN(CCO)CC3)c(O)ccc2c1=O | 1.1 | 0 | -14 | 0
29 | CC(C)C(NC(=O)c1ccc2c(c1)OCO2)C(=O)N/N=C\c1ccco1 (stereo not drawn) | 1.1 | 0 | -15 | 2
30 | CCOc1ccc(NC(=O)c2nnn(CC(=O)Nc3ccccc3OC)c2N)cc1 | 0.8 | -2 | -10 | 7

item | TNAP act hi DEA | Diaph inh CS | TNAP inh hiacc
21 | 1.1 | -2 | -10
22 | 1.1 | 19 | -6
23 | 1.1 | 20 | -6
24 | 0.9 | -7 | 9
25 | 1 | 3 | -2
26 | 1 | 11 | 2
27 | 1 | 3 | -4
28 | 1 | 5 | -5
29 | 1 | 7 | -3
30 | 1 | 9 | -1

# Going on with the list.
item | mol | FLuc act counter | Efa HMGR inh | TNAP inh no acc | G6PDH counter
31 | Nc1n[nH]c(-c2ccccc2)n1 | 1 | 2 | 35 | 3
32 | CCCC(=O)N1CCN(c2ccc(NC(=O)C(C)(C)C)cc2)CC1 | 1.1 | -6 | -4 | 14
33 | COc1cc(NC(=O)CSc2ncnc3c2cnn3Cc2ccccc2)cc(OC)c1 | 1.1 | -4 | 3 | 1
34 | Cc1ccnn1CC(=O)N/N=C/c1ccco1 | 1.1 | 1 | -1 | 3
35 | COc1ccc(OC2C(=O)N(Cc3ccc4c(c3)OCO4)C2c2cccs2)cc1 (stereo not drawn) | 1.1 | / | -11 | 4
36 | COC(=O)C1=C(C)N=C2SC(C#N)=C(N)N2C1c1ccc(OC)cc1 (stereo not drawn) | 1 | -3 | 3 | 0
37 | Cc1ccc(S(=O)(=O)N2CCN(c3nc(C)nc4sc5c(c34)CCC(C)C5)CC2)cc1 (stereo not drawn) | 1.1 | 1 | -3 | 4
38 | Cc1cc(C)n(S(=O)(=O)Cc2ccccc2)n1 | 1 | 4 | -4 | 4
39 | COC(=O)c1ccc(Sc2ccccc2NS(=O)(=O)c2ccc(C)cc2)nc1 | 1 | -6 | -7 | 7
40 | COc1ccc(OC)c(NC(=O)C(CC(=O)O)NCc2ccco2)c1 (stereo not drawn) | 1.1 | 0 | -10 | 4

item | TNAP act hi DEA | Diaph inh CS | TNAP inh hiacc
31 | 1 | 5 | -3
32 | 1 | 1 | -2
33 | 1.1 | 12 | -5
34 | 1.1 | 0 | -7
35 | 1 | 24 | -4
36 | 1 | 14 | -2
37 | 1.1 | 17 | -8
38 | 1 | 6 | -4
39 | 1 | 18 | -2
40 | 1.1 | 11 | -6

# The listing continues:
item | mol | FLuc act counter | Efa HMGR inh | TNAP inh no acc | G6PDH counter
41 | O=C(c1cccs1)N1CCN(C(=O)C(c2ccccc2)c2ccccc2)CC1 | 1.1 | 2 | -6 | -2
42 | COc1ccc(N2C(=O)CSC23CCC(C(C)(C)C)CC3)cc1 (stereo not drawn) | 1.1 | -2 | -9 | 8
43 | CCN(CC)S(=O)(=O)c1ccc2c(c1)nc(SCC(=O)N1CCOCC1)n2-c1ccccc1OC | 1 | -1 | -9 | 6
44 | COc1ccccc1Oc1ccc2c(c1)C(=O)N(c1ccc(C)cc1)C2=O | 1.1 | 0 | -12 | 2
45 | CCOc1ccc(N=C2NC(=O)S/C2=C\c2ccc(O)cc2)cc1 | 0.9 | -2 | 24 | -4
46 | O=S(=O)(c1cccs1)N1CN(Cc2ccc(Cl)cc2)c2nc3ccccc3nc21 | 1.1 | -6 | -8 | 6
47 | CCOc1ccc(OC(=O)NC(c2ccccc2)C(Cl)(Cl)Cl)cc1 (stereo not drawn) | 1 | / | -6 | 2
48 | COc1cccc(SCc2noc(C(=O)NCC3CCCO3)c2C(=O)O)c1 (stereo not drawn) | 1.1 | 0 | -11 | 3
49 | CC(C)CC(=O)NC1(C(F)(F)F)C(=O)N(Cc2ccccc2)C2=C1C(=O)CC(C)(C)C2 (stereo not drawn) | 1.1 | -5 | -11 | 5
50 | CCOC(=O)CSC1=C(C#N)C(c2ccccc2F)C(C(C)=O)=C(C)N1 (stereo not drawn) | 1 | -2 | -9 | 11

item | TNAP act hi DEA | Diaph inh CS | TNAP inh hiacc
41 | 1 | 8 | -4
42 | 1.1 | 23 | -6
43 | 1.1 | 31 | -8
44 | 1.1 | 8 | -6
45 | 0.7 | 10 | 31
46 | 1 | 10 | -4
47 | 1 | -1 | -4
48 | 1 | -1 | -3
49 | 1.1 | 8 | -8
50 | 1 | 15 | -2
